# Bioassay records as filed in PubChem BioAssay.
# Lassa entry inh: blocks Lassa virus binding to or entry into cells; Lassa virus pseudotype entry inhibition, cell reporter; control for the full effect not named in the record; Potency, µM (top dose mostly 37.9 µM), for the others: at the highest dose activity change, negative = inhibition, usual class: inhibitors; hit rate 1.2% among 300,000; AID 540256; active means well fitted inhibition curve with a large enough effect; inconclusive means small, poorly fitted or top-dose-only effect, or effect the other way; inactive means flat fitted curve, though single readings scatter; tested in HEK293 cells; note: % is set by controls: 0 for no effect and ±100 for the full control effect; nearly all actives have a fitted effect of over 50% in size; luciferase read-out
# Marburg entry inh: blocks Marburg virus binding to or entry into cells. Marburg virus pseudotyped entry inhibition, cell reporter; control for the full effect not named in the record; about a third of the inactives were read at about 46 µM. Potency, µM (top dose mostly 37.8 µM), for the others: at the top dose activity change, negative = inhibition, usual class: inhibitors. hit rate 1.8% among 300,000; active = well fitted inhibition curve with a large enough effect; inconclusive = small, poorly fitted or top-dose-only effect, or effect the other way; inactive = flat fitted curve, though single readings scatter; tested in HEK293 cells; about a fifth of its hits are not listed in these tables; note: % is set by controls: 0 for no effect and ±100 for the full control effect; luciferase read-out
# RE007 growth inh: less growth of the S. pombe RE007 Vpr strain | S. pombe RE007 Vpr strain, BacTiter-Glo ATP luminescence, 24 h; control for the full effect not named in the record | Potency, µM (highest dose often 92.2 µM), without a hit: at the top dose activity change, negative = less growth | hit rate 0.21% among 360,000 | AID 651644; active = well fitted falling curve with a large enough effect; inconclusive = small, poorly fitted or top-dose-only effect; inactive = no such curve, though single readings can be large or run the other way;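 note: % is set by controls: 0 for no effect and ±100 for the full control effect; nearly all actives have a fitted effect of over 50% in size; the assay follows cell death caused by Vpr and the record does not say whether a fall means rescue or toxicity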
#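 Fission yeast strain RE007, carrying one chromosomally integrated HIV-1 vpr copy, was seeded at OD 0.01 in PMG+AL medium with 23 nL pinned compound. After 24 h at 30 °C and 99% humidity, viability was read by BacTiter-Glo luminescence.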
# 2A StopGo: lowers the luciferase signal of an FMDV 2A StopGo reporter | human cells with a luciferase reporter of 2A StopGo recoding; control for the full effect not named in the record | AID 1159524 | hit rate 1.2% among 410,000 | Potency, µM (top dose mostly 57.9 µM), without a hit: top-dose signal change, negative = less light; active = well fitted falling curve with a large enough effect; inconclusive = small, poorly fitted or top-dose-only effect; inactive = no such curve, though single readings can be large or run the other way; tested in HEK293T cells; note: % is set by controls: 0 for no effect and ±100 for the full control effect; nearly all actives have a fitted effect of over 45% in size; luciferase light after 4 h
# Cruzain Triton: blocks cruzain activity in presence of Triton detergent. P25779. purified cruzain, Z-FR-AMC fluorescence, 0.01% Triton. Potency, µM, for inactives: max response, negative = inhibition, hits mostly inhibitors. hit rate 0.43% among 200,000; active = well fitted curve in the direction sought with a large enough effect; inconclusive = small, poorly fitted or top-dose-only effect, or another doubt; inactive = no such curve, though single readings can be large; an effect the other way counts as inactive or inconclusive;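 note: plate controls were neutral wells for no effect and buffer without enzyme for full effect; nearly all actives have a fitted effect of over 40% in size; top concentration of the series not given in the record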
# Target sequence (P25779 123-467 limits assumed): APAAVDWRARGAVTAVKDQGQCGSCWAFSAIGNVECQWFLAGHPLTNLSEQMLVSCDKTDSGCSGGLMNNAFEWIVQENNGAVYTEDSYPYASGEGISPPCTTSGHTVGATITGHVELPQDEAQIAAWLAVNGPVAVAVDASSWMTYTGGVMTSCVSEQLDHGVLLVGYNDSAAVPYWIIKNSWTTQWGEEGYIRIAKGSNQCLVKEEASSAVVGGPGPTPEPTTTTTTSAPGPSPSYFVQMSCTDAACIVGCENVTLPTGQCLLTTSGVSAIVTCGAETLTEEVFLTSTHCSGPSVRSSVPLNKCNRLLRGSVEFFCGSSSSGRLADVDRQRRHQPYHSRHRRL
#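 Sodium acetate buffer (100 mM, pH 5.5) containing 5 mM DTT and 0.01% Triton X-100 hosted 1.5 nM cruzain and test compound for 15 min at room temperature. Cleavage of 2 uM Z-FR-AMC was then tracked by fluorescence.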
# Cruzain noTriton: cruzain (T. cruzi) inhibition without detergent; P25779; purified cruzain, Z-FR-AMC fluorescence, no detergent; Potency, µM, inactives show max response, negative = inhibition, most hits filed as inhibitors; hit rate 2.3% among 200,000; active = well fitted curve in the direction sought with a large enough effect; inconclusive = small, poorly fitted or top-dose-only effect, or another doubt; inactive = no such curve, though single readings can be large; an effect the other way counts as inactive or inconclusive;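 note: plate controls were enzyme without inhibitor for no effect and buffer without enzyme for full effect; nearly all actives have a fitted effect of over 40% in size; top concentration of the series not given in the record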
#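 Detergent-free condition (0.00005% Triton X-100) in acetate buffer pH 5.5 with DTT. 1.5 nM enzyme and compound were pre-mixed 15 min, then 2 uM Z-FR-AMC substrate added; reaction progress from fluorescence change between first and third reads (60 s).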
# NS1 function inh: inhibitors of influenza NS1 protein function; S. cerevisiae slowed by influenza A NS1, growth recovery by OD600; Potency, µM (highest dose often 46.1 µM), for the others: top-dose activity, positive = more growth; hit rate 0.4% among 270,000; note: actives are rising curves; nearly all actives have a fitted effect of over 50% in size
#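 Compounds were scored for reversing the slow growth caused by influenza A NS1 in S. cerevisiae, measured by optical density at 600 nm. Assay medium contained 2% galactose at pH 6.0; NS1-free yeast of the same strain were the positive control.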
# SARS PLpro yeast: SARS-CoV PLP inhibition in yeast. S. cerevisiae expressing SARS-CoV PLpro, growth rescue; control for the full effect not named in the record. Potency, µM (series often up to 32.9 µM), inactives show top-dose activity, positive = growth rescue. hit rate 0.19% among 330,000; note: 0% is about no effect; nearly all actives have a fitted effect of over 55% in size; growth read by luminescence after 48 h
# Starred values were filed as active, the others as inactive; ? = inconclusive; · = not tested or not shown; & = joins results of further samples; [ ] = remark or other dose. Unless noted, calls come from the whole dose curve; as a rule, active means well fitted rising curve with a large enough effect; inconclusive means small, poorly fitted or top-dose-only effect; inactive means no such curve, though single readings can be large or run the other way. Potency is the fitted concentration of half-maximal effect.
1: COc1ccc(CNCCCSc2ncccn2)cc1OC
2: Cc1cc(NC(=O)CSc2nnc(-c3cccnc3)n2C2CCCCC2C)no1 (stereo not drawn)
3: O=C(CCCC(=O)c1ccccc1)Nc1ccc(F)cc1
4: CCOC(=O)CCc1c(C)n(CC)c2cc(-c3ccccc3OC)nn2c1=O
5: COc1ccc(NC(=O)CCNS(=O)(=O)c2ccc3c(c2)c(=O)n(C)c(=O)n3C)c(OC)c1
6: CC(=O)OCC(=O)C1(O)CCC2C3CC(F)C4=CC(=O)CCC4(C)C3C(=O)CC21C (stereo not drawn)

entry no.,1,2,3,4,5,6
Lassa entry inh,·,1%,4%,0%,-4%&4%,-16%[46.1 µM]
Marburg entry inh,·,-1%,-5%,1%,-17%&-22%,2%[46.1 µM]
RE007 growth inh,-23%,7%,1%,-19%,-4%,-13%
2A StopGo,7%,-12%,-1%,-5%,7%,-4%
Cruzain Triton,·,1.7%,·,-4.8%,-1.9%,·
Cruzain noTriton,·,7%,·,6%,-3%,·
NS1 function inh,-8%,0%,-1%,-2%,?,·
SARS PLpro yeast,1%,2%,-3%,13%,9%,·

7: COc1ccccc1NC(=O)Nc1ccc2c(c1)CCC2
8: CCOc1cc(/C=C/c2cccc[n+]2C)ccc1OCC(=O)Nc1ccc(C)cc1
9: CS(=O)(=O)N(CC(=O)NCCSCc1c(F)cccc1Cl)c1ccc2c(c1)OCO2
10: CCOc1ccc2nc(Cl)c(C3CC(c4ccco4)=NN3S(=O)(=O)c3ccccc3)cc2c1 (stereo not drawn)
11: CN1CCN(CC(O)COc2ccc(OCC(O)CN3CCN(C)CC3)cc2)CC1 (stereo not drawn)
12: CCCc1cc(=O)n2[nH]c(-c3ccco3)nc2n1

entry no.,7,8,9,10,11,12
Lassa entry inh,·,-25%[46.1 µM],-13%,2%,-14%,3%
Marburg entry inh,·,-22%[46.1 µM],-4%&-4%,?,-14%,3%
RE007 growth inh,-20%,-15%,0%,4%,-7%,4%
2A StopGo,54%[activator],-2%,-10%,-7%,-8%,-20%
Cruzain Triton,·,·,-0.9%,-5.5%,1.5%,-2.6%
Cruzain noTriton,·,·,5%,?,-5%,-4%
NS1 function inh,-51%,-35%,-10%,10µM*,-8%,6%
SARS PLpro yeast,18%,-4%,-12%,6%,8%,6%

# Results in RE007 growth inh, SARS PLpro yeast and Marburg entry inh, for 2 of the compounds above:
entry	SMILES	RE007 growth inh	SARS PLpro yeast	Marburg entry inh
10	CCOc1ccc2nc(Cl)c(C3CC(c4ccco4)=NN3S(=O)(=O)c3ccccc3)cc2c1 (stereo not drawn)	4%	6%	?
7	COc1ccccc1NC(=O)Nc1ccc2c(c1)CCC2	-20%	18%	·

# (more compounds)
13: CC1CCN(S(=O)(=O)c2cccc(C(=O)NCc3ccco3)c2)CC1
14: CCn1c(SCC(=O)Nc2nc3ccccc3s2)nnc1-c1ccc(Br)cc1
15: O=C(NNS(=O)(=O)c1ccc([N+](=O)[O-])cc1)c1cnn(-c2ccccc2)c1-n1cccc1
16: Cc1cccc(-n2ncc3c2CCCC3NC(=O)Cn2cccn2)c1C (stereo not drawn)
17: CCOC(=O)c1oc2ccc(OC)cc2c1NC(=O)CN1CCN(C)CC1
18: O=C(CN(C(=O)c1csnn1)c1ccccc1)NCc1ccc2c(c1)OCO2

entry no.,13,14,15,16,17,18
Lassa entry inh,-2%,24%,5%,1%,14%,12%[46.1 µM]
Marburg entry inh,-3%,-1%,26%,-5%,?,2%[46.1 µM]
RE007 growth inh,2%,-3%,-12%,1%,-4%,17%
2A StopGo,12%,10%,11%,21%,-17%,20%
Cruzain Triton,-3.5%,6.4%,-11%,·,-4.7%,·
Cruzain noTriton,-4%,?,-18%,·,11%,·
NS1 function inh,4%,4%,13%,-2%,5%,4%
SARS PLpro yeast,-1%,4%,9%,4%,-3%,-1%

19: O=C(NC1CCCCCCC1)c1ccc(S(=O)(=O)N2CCCC2)cc1
20: CCN(CC)CCNCc1ccc(Br)cc1OCC(=O)NCc1ccccc1
21: COc1cc2ccccc2cc1C(=O)NCC(c1cccs1)N(C)C (stereo not drawn)
22: COc1ccc(NC(=O)C2=C(C)Nc3ncnn3C2c2ccc(C)o2)cc1 (stereo not drawn)
23: CC(=O)Nc1cccc(NC(=O)C(=O)NCCc2csc3nc(-c4ccccc4F)nn23)c1
24: CCOc1ccc(NC(=O)c2c(NCc3cccc(OC)c3OC)sc3c2CCC3)cc1

entry no.,19,20,21,22,23,24
Lassa entry inh,-22%,·,?,8%[46.1 µM],3%[46.1 µM],9%[46.1 µM]
Marburg entry inh,1%,·,?,·,·,·
RE007 growth inh,15%,-7%,14%,·,·,·
2A StopGo,1%,3%,1%,2%,6%,23%
Cruzain Triton,-0.2%,·,·,-1.9%,-2.4%,-1.5%
Cruzain noTriton,2%,·,·,-5%,-12%,-12%
NS1 function inh,-14%,2%,·,·,·,·
SARS PLpro yeast,1%,-1%,6%,·,·,·

25: O=C(CCNC(=O)c1ccco1)NNC(=O)c1ccc(Br)cc1
26: [S-]c1nnc(-c2ccc(Br)cc2)n1-c1ccccc1.[Zn+2]
27: COc1ccc(-c2nc3cc(C)ccn3c2NC(=O)c2ccccc2OC)cc1
28: O=C(CN(Cc1ccc(F)cc1)S(=O)(=O)c1ccc(S(=O)(=O)N2CCOCC2)cc1)Nc1ccccc1
29: CC(O)C(NC(=O)OCc1ccccc1)C(=O)OCc1ccccc1 (stereo not drawn)
30: CN(C)CCCN1CC(=O)N2[C@@H](Cc3c([nH]c4ccccc34)C2(C)C)C1=O

entry no.,25,26,27,28,29,30
Lassa entry inh,1%,·,·,?,?,·
Marburg entry inh,24%,·,·,24%,18%,·
RE007 growth inh,5%,0%,-4%,5%,13%,-1%
2A StopGo,-9%,63%[activator],0%,26%,-16%,-28%
Cruzain Triton,·,·,·,-1.1%,·,·
Cruzain noTriton,·,·,·,1%,·,·
NS1 function inh,·,-2%,-8%,1%,·,4%
SARS PLpro yeast,·,-2%,8%,5%,2%,-2%

31: CCc1ccc(-c2csc3nc[nH]c(=O)c23)cc1
32: COc1cc(C(=O)NCCCN2CCCC2=O)cc(OC)c1OC
33: COc1ccc(C(=O)NNC(=S)NC(=O)c2cccc([N+](=O)[O-])c2)cc1
34: COc1ccc(-c2cc(C(F)(F)F)nc(S(=O)(=O)CCC(=O)N3CCOCC3)n2)cc1
35: O=C(CN1CCCCCC1)Nc1ccc(Br)cc1[N+](=O)[O-]
36: CCN1C(=NCCc2c[nH]c3ccccc23)N[C@@H](c2ccccc2)[C@H](C(=O)OC)[C@H]1C

entry no.,31,32,33,34,35,36
Lassa entry inh,?,1%,-24%[46.1 µM],?,2%,·
Marburg entry inh,?,-7%,-27%[46.1 µM],?,-8%,·
RE007 growth inh,4%,6%,13%,-14%,2%,-16%
2A StopGo,-9%,-16%,-7%,-11%,35%[activator],-18%
Cruzain Triton,·,4.4%,·,-10%,·,·
Cruzain noTriton,·,-8%,·,?,·,·
NS1 function inh,-14%,-4%,·,-10%,4%,0%&0%
SARS PLpro yeast,-10%,12%,·,8%,·,0%&0%

37: CCc1ccc(N2C(=O)CN(Cc3cc(OC)c(OC)c(OC)c3)C2=S)cc1
38: CCCCNC(=S)NNc1c(Cl)cc(Cl)cc1Cl
39: Oc1ccc(-c2nccc(-c3ccc(Cl)cc3)n2)cc1
40: COc1cc(C(C)=O)ccc1OCC(O)CN1CCN(c2ccc(F)cc2)CC1 (stereo not drawn)
41: Cc1c(-c2cccs2)[n+](=O)c2c(n1[O-])CCCCC2
42: O=C(c1cccc2nc3ccccc3nc12)N1CCOCC1

entry no.,37,38,39,40,41,42
Lassa entry inh,-15%,?,1%,?,-5%,0%
Marburg entry inh,?,·,?,?,5%,-4%
RE007 growth inh,10%,31%,-2%,3%,13%,-11%
2A StopGo,-27%,27%,48%[activator],0%,-10%,9%
Cruzain Triton,-4.9%,·,·,·,0.1%,·
Cruzain noTriton,1%,·,·,·,-6%,·
NS1 function inh,19%,·,·,-6%,5%,1%
SARS PLpro yeast,4%,14%,-4%,2%,-3%,0%

43: CCOc1ccccc1NC(=O)N1CCC(n2nnc3cc(C)ccc32)CC1
44: C=CCNC(=O)c1sccc1Oc1ccc(F)cc1[N+](=O)[O-]
45: CCCC(=O)Nc1nnc(SCc2cc(=O)n3cccc(C)c3n2)s1
46: NC(=O)c1nsc(C(=O)N(Cc2cccnc2)C(C(=O)NC2CCCC2)c2ccc(F)cc2)c1N (stereo not drawn)
47: Cc1nc2ccc(S(=O)(=O)NC(C(=O)N3CCN(c4ccc(Cl)cc4)CC3)C(C)C)cc2s1 (stereo not drawn)
48: Cn1c(=O)cc(OCCCC(=O)NCCCN2CCN(Cc3ccccc3)CC2)c2ccccc21
49: O=[N+]([O-])c1cc([N+](=O)[O-])c(Oc2cccnc2Br)cc1NN1CCCCC1
50: CC(C)(C)c1ccc(CSc2nc3c(c(=O)[nH]2)CCCC3)cc1
51: COc1ccc(NC(=O)NNC(=O)COc2cc(C)c(Cl)c(C)c2)c(OC)c1

entry no.,43,44,45,46,47,48,49,50,51
Lassa entry inh,2%,3%,3%[46.1 µM],·,?,5%,·,10%[46.1 µM],?
Marburg entry inh,?,-18%[46.1 µM],·,-17%[46.1 µM],?,-20%&-20%,·,-6%[46.1 µM],11%
RE007 growth inh,-7%,16%,·,2%,·,-11%,-4%,·,8%
2A StopGo,-29%,-16%,-14%,-4%,-13%,8%,?,?,-20%
Cruzain Triton,-0.7%,·,3.4%,·,-3.1%,-0.6%,·,2.5%,·
Cruzain noTriton,-6%,·,4%,·,6%,4%,·,-13%,·
NS1 function inh,-6%,·,·,-1%,·,3.5µM*,-20%,·,6%
SARS PLpro yeast,1%,-1%,·,0%,·,9%,1%,·,22%
